Bioassay records (PubChem)
Calb FLC – C. albicans growth modulation with fluconazole; C. albicans CaCi-2 (fluconazole-resistant clinical isolate) + fluconazole, Alamar Blue growth, 48 h; growth inhibition, % (concentration not given with the values); 0.57% of 300,000 active;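 active means most replicates above 75%; inconclusive means exactly half above 75%; inactive means most below 75%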;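 further: all wells also contain fluconazole at 8 µg/ml as a sub-toxic cotreatment; 0% = median of DMSO wells and 100% = median of geldanamycin control wells; wells of about 8 µL received 7.5 nL stock; the first replicate is given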
T cruzi inh – T. cruzi replication inhibition. T. cruzi beta-gal in NIH3T3, luminescence, 90 h. inhibition, % (concentration not given with the values). 1.4% of 300,000 active. AID 1885;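 active means mean inhibition across valid replicates above about 55%, limit read from the data; inconclusive means mean below that limit but half or more replicates reach it; inactive means mean below it, under half of replicates reach it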;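 further: signal also drops with host cell toxicity which is not excluded here; 0% = plate median of DMSO wells and 100% = zero luminescence signal; higher percent means less beta-gal luminescence so fewer parasites; stock transfer was 50 nL into about 50 µL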
B2AR ag – human beta-2 adrenergic receptor agonism by FAP | AID 504454 | P07550 | Am2.2-beta2AR cells, FAP receptor internalization, flow cytometry; reference of the scale not given here | 0.43% of 340,000 active | response, % (concentration not given with the values);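 active means response above a set limit, near 3 SD of response in nonfluorescent compounds, cut at about 42% in these data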;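 further: stock transfer was 100 nL into about 11 µL; a reference agonist was the positive control; negative values mostly stem from fluorescent compounds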
Target sequence (P07550 whole entry, looked up): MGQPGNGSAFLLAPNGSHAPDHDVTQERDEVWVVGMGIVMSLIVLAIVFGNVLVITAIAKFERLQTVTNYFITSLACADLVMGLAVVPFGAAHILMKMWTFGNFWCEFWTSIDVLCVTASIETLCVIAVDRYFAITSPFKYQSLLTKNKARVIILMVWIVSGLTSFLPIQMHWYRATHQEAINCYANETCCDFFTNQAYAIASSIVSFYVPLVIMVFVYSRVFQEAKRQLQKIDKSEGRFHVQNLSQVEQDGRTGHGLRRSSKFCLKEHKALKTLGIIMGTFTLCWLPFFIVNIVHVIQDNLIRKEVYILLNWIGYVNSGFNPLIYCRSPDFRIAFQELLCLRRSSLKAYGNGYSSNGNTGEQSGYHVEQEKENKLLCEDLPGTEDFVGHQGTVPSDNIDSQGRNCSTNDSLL
Beta apoptosis – blocks beta cell apoptosis; INS-1E cytokine-induced death, ATP luminescence, 48 h; percent of positive-control rescue, neutral wells zero; protection from apoptosis, % (concentration not given with the values); 0.8% of 300,000 active;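 active means all replicates at 75% or more, or half of them and the mean; inconclusive means half reach 75% but not the mean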;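 further: 0% = cytokine-treated negative control wells and 100% = positive control rescue; higher means more ATP so stronger rescue from cytokine killing; wells of about 40 µL received 100 nL stock; the first replicate is given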
Ecoli rRNA inh – inhibits bacterial ribosomal RNA function over humanized ribosomes; AID 720706; E. coli WT GFP vs humanized-ribosome RFP mutants, fluorescence, 24 h; stronger effect = lower value; DMSO median 0, no signal -100; 1.6% of 350,000 active; GFP signal change (wild-type ribosome), % (test concentration not listed);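 active means significant combined selectivity score with lowered wild-type GFP, culture density cut under 30%, mutant RFP and density less affected; inactive means any of these conditions unmet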; further: one replicate is shown; some compounds called inactive have numbers as strong as hits
ALR inh – human ALR oxidase inhibition via reduced H2O2. purified ALR, DTT oxidation, H2O2 HRP-luminol luminescence. inhibition, % (concentration not given with the values). 3.8% of 290,000 active. AID 485317;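 active means mean and each replicate at 75% or more; inconclusive means only one of the two met; inactive means neither met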;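 further: stock transfer was 7.5 nL into about 7.5 µL; 0% = neutral wells and 100% = wells with inactivated enzyme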
Target sequence (P55789 whole entry, looked up): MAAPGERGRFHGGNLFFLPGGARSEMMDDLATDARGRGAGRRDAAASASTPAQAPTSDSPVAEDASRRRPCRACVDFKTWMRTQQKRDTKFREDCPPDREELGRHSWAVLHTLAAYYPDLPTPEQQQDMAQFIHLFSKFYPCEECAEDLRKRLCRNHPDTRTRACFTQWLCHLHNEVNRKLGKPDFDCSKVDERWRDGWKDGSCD
LANA-H2B inh – blocks KSHV LANA binding to histone H2A/H2B. cell-free LANA-H2A/H2B peptide, fluorescence polarization. Q9QR71. inhibition, % (test concentration not listed). 0.6% of 320,000 active; in the data active means inhibition mostly above about 10%, no sharp cut-off; inactive means mostly below about 6.7%;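 further: stock transfer was 7.5 nL into about 10 µL; 0% = median of vehicle wells and 100% = median of positive control wells; one replicate is shown; the record names a cut of 25% in any replicate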
Bfl-1 A1 inh – inhibitors of the anti-apoptotic protein A1, read as caspase activation; MEF A1-2A-BIM cells, Caspase-Glo 3/7 luminescence, 3 h; percent of clofoctol response, vehicle zero; caspase activation, % (no concentration beside the values); 0.066% of 330,000 active; AID 2462;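 active means over half of replicate activation scores above 10%, or exactly half above 10 with the replicate mean above 10; inconclusive means replicate mean below 10 yet half the replicates above 10; inactive means over half of replicates below 10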;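 further: wells of about 30 µL received 50 nL stock; many hits fall short of the cut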
Ecoli rRNA inh OD600 – also measured in Ecoli rRNA inh; calls as there; OD600 change, %; measured here: OD600 growth;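 optical density of the mix in the first replicate; 0 = DMSO median and -100 = no signal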
Ecoli rRNA inh RFP – second read-out of Ecoli rRNA inh, no call of its own (marks repeat the call); RFP signal change, %; measured here: RFP humanized mutant strains;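 first replicate; 0 = DMSO median and -100 = no signal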
* marks the source's active call; other numbers are inactive results; ? = inconclusive; nt = no result given. Only part of the results is shown. The share of hits here may be higher or lower than overall.

The line under a structure holds: Calb FLC	T cruzi inh	B2AR ag	Beta apoptosis	Ecoli rRNA inh	Ecoli rRNA inh OD600	Ecoli rRNA inh RFP	ALR inh	LANA-H2B inh	Bfl-1 A1 inh
- Cc1c(CCC(=O)O)c(=O)oc2c(C)c(OCc3cc4c(cc3Cl)OCO4)ccc12
 : 9	-8	5	-5	1	0	5.4	-1	-2.6	1.4
- CCOc1cc(-c2c(C)c(C)nc(N)c2C#N)ccc1O
 : 4	-4	9	-1	nt	nt	nt	54	-4.0	0.6
- CCn1cc(C(=O)NC(C)CCc2ccccc2)c(=O)c2cc(S(=O)(=O)N(C)C)ccc21 (centres undefined)
 : 3	28	0	11	-9	-21	0.8	3	-4.1	0.2
- CC(=O)N1c2ccc(S(=O)(=O)NCC3CCC(C(=O)NCc4ccc(C)o4)CC3)cc2CC1C (centres undefined)
 : 10	-11	2	5	4	-12	-1.8	4	1.2	1.7
- Cc1ccc(N2CC(C(=O)Nc3c4c(nn3C(C)(C)C)CS(=O)(=O)C4)CC2=O)cc1C (centres undefined)
 : 0	-2	-6	0	4	12	-1.4	-13	-8.5	-0.8
- CN(C)CCCN=Cc1c(-c2ccccc2)[nH]n(-c2nc3ccccc3s2)c1=O
 : -1	12	-8	0	-5	5	19	nt	-0.4	-1.0
- O=C(CN(C1CCCCC1)S(=O)(=O)c1ccc(Cl)cc1)NCc1cccnc1
 : -4	5	-9	0	nt	nt	nt	-1	1.8	0.1
- CC(C)OC(=O)CSc1nc(N)c(C#N)c(-c2ccco2)c1C#N
 : -5	26	10	-6	nt	nt	nt	nt	2.6	-2.0
- CSCCC1NC(=O)N(CC(=O)N2N=C(c3ccc(Cl)cc3)CC2c2ccco2)C1=O (centres undefined)
 : 2	6	1	6	-17	-16	8.3	-6	-1.3	-0.3
- COC1=CC(=O)[C@@]2([C@@H]1O)[C@@H](Cl)C[C@]13C(OC)=C(OC)C(=O)C[C@]21CCN3C
 : nt	nt	3	-10	7	-7	-2.2	-2	0.3	0.1
- O=c1oc2ccc(C#CC3(O)CCCCC3)cc2cc1-n1cc(-c2ccccn2)nn1
 : nt	nt	-10	-7	6	0	4.8	-6	0.1	0.3
- COc1cc(C(=O)Nc2sc(C(=O)N3CCOCC3)c(C)c2C#N)cc(OC)c1OC
 : -7	-15	11	2	nt	nt	nt	nt	1.4	-0.3
- COc1ccc2[nH]c3c(=O)n(CCN4CCOCC4)cnc3c2c1
 : 12	-4	-1	-1	2	4	-1.9	9	-2.5	-0.8
- Cc1ccccc1S(=O)(=O)Cc1ccc(C(=O)N(C)C2CCCCC2)o1
 : -2	12	2	0	-8	-16	-0.1	-1	5.9	0.3
- Cc1cc(C)c2c(=O)n(CC(=O)NC3CCCC3)sc2n1
 : 6	?	10	-5	13	9	-3.0	7	0.4	0.1
- CC#CCCCC(=O)Nc1cc(OC)nc(OC)n1
 : -8	-18	5	0	nt	nt	nt	-13	-1.3	-3.0
- Cc1ccc(C)c(OCCC(=O)Nc2cc(S(=O)(=O)N3CCCCC3)ccc2C)c1
 : nt	nt	-1	1	4	-15	-2.0	-5	5.5	-0.1
- O=C1SC(c2ccccc2)=N/C1=C/c1ccco1
 : 6	3	-11	-3	nt	nt	nt	-4	1.8	-0.5
- O=C(Nc1ccccc1C(=O)NCCCN1CCOCC1)c1ccc(F)cc1F
 : -1	-1	-7	-5	3	3	0.3	-1	-6.0	0.2
- O=C(c1ccc(F)cc1F)N(Cc1ccccn1)Cc1ccco1
 : 7	-14	-1	-5	nt	nt	nt	-4	2.0	-0.6
- COc1cc(-c2nnc3n2CCCCC3)cc(OC)c1OC
 : 4	-1	-6	-6	1	6	2.2	-3	1.4	0.0
- NC(=O)c1ccc(NC(=O)COC(=O)c2n[nH]c3ccccc23)cc1
 : nt	nt	-3	-2	2	6	3.5	-2	4.4	1.7
- CCCCc1cc(=O)oc2cc(OCC(=O)NCC3CCC(C(=O)O)CC3)ccc12 (centres undefined)
 : -6	-6	-2	-5	nt	nt	nt	nt	-0.8	1.1
- O=C(CN1CCC(O)(c2ccccc2)CC1)Nc1ccc2c(c1)OCCO2
 : -1	-1	2	6	12	-1	-0.3	-16	2.0	-0.3
- CC(NC(=O)CNC(=O)c1sc2ccccc2c1Cl)c1ccc(S(N)(=O)=O)cc1 (centres undefined)
 : -1	?	-5	-3	-6	-18	1.5	1	-5.0	-0.3
- O=[N+]([O-])c1ccc(NC(=S)N2CCN(c3ccc(F)cc3)CC2)cc1
 : -8	-2	-2	-12	nt	nt	nt	34	-1.4	0.1
- COc1ccc(C(=O)O)cc1NC(=S)NC(=O)CSc1ccc(Cl)cc1
 : -2	-7	7	nt	-7	-33	-1.9	?	-4.6	-0.6
- CCCNC(=O)c1cc2cc([N+](=O)[O-])ccc2s1
 : -29	1	-1	-1	1	-5	-5.9	-4	6.8	-1.0
- COc1ccc(C(=O)NCc2nnc(SCC(=O)Nc3nnc(C)s3)o2)cc1OC
 : -1	-12	5	0	10	-1	-2.2	-3	-9.0	0.1
- CC(=O)Nc1ccc(CCc2nc3ccccc3[nH]2)cc1
 : -13	-4	-8	-1	2	1	-0.8	-7	-0.4	0.3
- COc1ccccc1N1C(=O)CC(N2CCN(c3ccc(F)cc3)CC2)C1=O (centres undefined)
 : -5	-1	7	-7	-2	-2	-5.2	97*	-3.3	-0.7
- COc1ccccc1CNC(=O)COC(=O)c1cc(C)oc1C
 : -5	-8	4	-5	10	8	4.2	-3	-3.3	0.4
- Cc1cc(=O)n(Cc2ccccc2)c2ccccc12
 : -10	7	-4	-4	-9	-5	-0.9	-14	-3.0	1.1
- CN(CCOc1ccccc1)CC(=O)Nc1cccc(C#N)c1
 : 1	8	4	4	-4	-4	0.9	-8	-4.7	0.5
- O=C(NCC1CCCO1)c1nn2c(C(F)(F)F)cc(-c3cccs3)nc2c1Cl (centres undefined)
 : -19	10	-15	-8	12	10	-1.4	-2	0.5	-0.9
- CCOc1ccc2[nH]cc(C(=O)O)c(=O)c2c1
 : -3	-23	6	3	-6	-2	1.1	1	1.2	1.5
- Cc1ccc2nc(N3C(=O)C(O)=C(C(=O)c4ccc(C)o4)C3c3ccco3)sc2c1 (centres undefined)
 : nt	nt	0	1	nt	nt	nt	2	nt	-0.9
- COC(=O)C(Cc1ccccc1)NC(=O)CCC(=O)NC(C)CCc1ccccc1 (centres undefined)
 : -32	-24	16	-3	-1	-8	1.3	-6	14*	0.6
- O=c1cc(-c2ccccc2)nc2cc(-c3ccco3)[nH]n12
 : 1	-11	2	-3	2	-2	6.6	42	3.8	-2.1
- O=C(CCN1CCc2ccccc2C1)Nc1ccccc1
 : -6	4	1	-3	nt	nt	nt	nt	1.1	2.7
- O=S(=O)(Nc1ccc2cn[nH]c2c1)c1cc(Br)ccc1Br
 : nt	nt	-3	-9	-53	-74	-19	-2	1.3	-0.5
- O=C(CNC(=O)c1cn2ccccc2n1)Nc1ccc(F)c(F)c1
 : -3	-3	-1	nt	3	7	3.9	-12	-1.9	-8.0
- Cc1sc2ncn(CC(=O)NCC3COc4ccccc4O3)c(=O)c2c1S(=O)(=O)N1CCOCC1 (centres undefined)
 : 2	-19	1	-1	5	0	-1.1	-3	1.4	1.1
- COc1ccccc1NS(=O)(=O)c1cc(NC(=O)CCC2CCCC2)ccc1N1CCOCC1
 : 14	47	-1	46	11	-6	4.2	1	3.3	0.1
- CC(C)CC(=O)N1CCN(C(=O)c2ccc(-c3ccccc3)cc2)CC1
 : 1	0	-7	2	-16	-10	-6.5	-4	-1.6	0.3
- COc1ccccc1NC(=S)NNC(=S)Nc1ccc(OC(F)F)cc1
 : -4	14	-3	2	nt	nt	nt	12	-6.6	0.6
- Cc1cc(C)c(CN2CCN(C(=O)Cn3ccc(N)nc3=O)CC2)c(C)c1
 : nt	nt	-6	0	6	9	-11	-11	-5.3	0.3
- Cc1cccc2sc(N(CCN(C)C)C(=O)/C=C/c3cccs3)nc12
 : 16	22	13	15	nt	nt	nt	-3	-0.3	-0.2
- CC(OC(=O)c1ccccc1C(=O)N(C)C1CCCCC1)C(=O)NC1(C#N)CCCCC1 (centres undefined)
 : nt	nt	10	-5	nt	nt	nt	2	-8.5	0.2
- COc1ccc(-n2ncc3c(N4CCN(c5cc(C)ccc5C)CC4)ncnc32)cc1
 : 8	24	6	6	6	12	0.6	-10	-5.8	0.1
- O=C(Nc1ccc(F)c([N+](=O)[O-])c1)c1ccc2c(c1)OCCO2
 : -26	-12	5	3	9	2	2.7	-17	-2.2	-5.3
- Cc1ccc(Cl)cc1NC(=O)c1cc(NC(=O)CCCC(=O)O)ccc1N1CCCCC1
 : 4	-7	12	-1	-7	-4	-1.4	65	-4.3	-1.0
- COC(=O)c1ccc(Cn2cc(Cl)cn2)cc1
 : 2	-3	-2	2	nt	nt	nt	-4	-3.3	1.3
- Cc1ccc(S(=O)(=O)c2nc(-c3ccccc3Cl)oc2N(C)C)cc1
 : 10	-10	4	-6	5	6	3.3	nt	-5.4	-1.2
- COc1cc(C)nc(N2CCCC(C(=O)Nc3ccccc3Br)C2)n1 (centres undefined)
 : -1	0	-11	4	2	0	-4.4	50	1.1	0.6
- COc1ccc(S(=O)(=O)N2CCCN(CC(=O)Nc3ccc(OC)c(Cl)c3)CC2)cc1
 : 0	-11	5	1	nt	nt	nt	2	2.7	1.1
- O=C(COC(=O)Cc1ccccc1[N+](=O)[O-])NCc1ccc(F)cc1
 : -3	-11	11	-1	-17	-10	-0.1	-7	-4.0	0.0
- CC(C)CC(=O)Nc1ccccc1N1CCOCC1
 : 6	-14	5	2	nt	nt	nt	-7	3.6	-0.4
- O=S(=O)(c1ccccc1)N1CCCC1c1nc2ccccc2s1 (centres undefined)
 : 14	6	-3	-4	nt	nt	nt	6	8.1	0.6
- COC(=O)[C@@H]1C[C@H]1[C@@H](NC(=O)c1ccccc1)c1ccccc1
 : -4	-19	-2	-4	6	2	0.4	-1	-3.3	-0.4

Carrying on:
The line under a structure holds: Calb FLC	T cruzi inh	B2AR ag	Beta apoptosis	Ecoli rRNA inh	Ecoli rRNA inh OD600	Ecoli rRNA inh RFP	ALR inh	LANA-H2B inh	Bfl-1 A1 inh
- CC(C)n1cc(C(=O)c2ccccc2O)cc(C#N)c1=O
 : -7	-9	3	-4	3	3	0.9	-21	5.8	0.1
- Cc1ccc(C(=O)C2CCN(S(=O)(=O)c3c(C)noc3C)CC2)cc1
 : 3	14	-3	nt	-15	-12	6.7	nt	0.7	0.1
- COC(=O)c1ccc(/C=N/NC(=O)C(=O)N2CCCCCC2)cc1
 : 4	-6	-2	-7	4	4	-2.9	8	-0.7	1.3
- O=C(Nc1ccc2nc(-c3ccco3)[nH]c2c1)c1ccco1
 : -7	1	-5	30	nt	nt	nt	-12	-2.1	-3.6
- C/C(=N\OCC(=O)Nn1c(=O)[nH]c2ccccc2c1=O)c1cccs1
 : 14	-8	-2	-4	-7	-15	-6.4	7	-0.1	0.3
- COc1cccc(NC(=O)Nc2nnc(Cc3ccccc3F)s2)c1
 : -3	12	3	10	9	13	0.2	-7	-2.6	-0.1
